# rRNA inh HTS: inhibits bacterial ribosomal RNA function over humanized ribosomes. E. coli WT GFP vs humanized-ribosome RFP mutants, fluorescence, 24 h; hits give low values; DMSO median 0, no signal -100. GFP signal change (wild-type ribosome), % (test concentration not listed). actives 1.6% (n = 350,000). AID 720706;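 active = significant combined selectivity score with lowered wild-type GFP, culture density cut under 30%, mutant RFP and density less affected; inactive = any of these conditions unmet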; note: one replicate is shown; some compounds called inactive have numbers as strong as hits
# FGF22 binding: binders of recombinant human FGF22 by thermal shift; Q9HCT0; SYPRO orange fluorescence; percent of sucrose octasulfate shift, DMSO zero; calls only at 9.99 µM; actives 1.5% (n = 340,000);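 active = melting point raised past a set limit in the mean and every replicate; three in four hits are not shown here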
# Target sequence (Q9HCT0 whole entry, looked up): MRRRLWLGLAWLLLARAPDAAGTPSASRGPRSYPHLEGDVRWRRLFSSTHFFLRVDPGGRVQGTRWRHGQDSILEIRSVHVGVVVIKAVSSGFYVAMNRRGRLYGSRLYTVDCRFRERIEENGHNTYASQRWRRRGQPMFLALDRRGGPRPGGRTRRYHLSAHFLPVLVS
# AF4-AF9 inh: blocks AF4 peptide binding to human AF9. actives 0.47% (n = 350,000). P42568. AlphaScreen, biotin-AF4 peptide binding to FLAG-AF9. inhibition, % at 10 µM;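 active = every replicate reaching a set inhibition limit, whatever the replicate mean, cut at about 25% in these data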;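 note: 0% = plate neutral control median and 100% = total signal loss; the record names both 10 and 1 µM as test concentration; the first replicate is given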
# Target sequence (P42568 whole entry, looked up): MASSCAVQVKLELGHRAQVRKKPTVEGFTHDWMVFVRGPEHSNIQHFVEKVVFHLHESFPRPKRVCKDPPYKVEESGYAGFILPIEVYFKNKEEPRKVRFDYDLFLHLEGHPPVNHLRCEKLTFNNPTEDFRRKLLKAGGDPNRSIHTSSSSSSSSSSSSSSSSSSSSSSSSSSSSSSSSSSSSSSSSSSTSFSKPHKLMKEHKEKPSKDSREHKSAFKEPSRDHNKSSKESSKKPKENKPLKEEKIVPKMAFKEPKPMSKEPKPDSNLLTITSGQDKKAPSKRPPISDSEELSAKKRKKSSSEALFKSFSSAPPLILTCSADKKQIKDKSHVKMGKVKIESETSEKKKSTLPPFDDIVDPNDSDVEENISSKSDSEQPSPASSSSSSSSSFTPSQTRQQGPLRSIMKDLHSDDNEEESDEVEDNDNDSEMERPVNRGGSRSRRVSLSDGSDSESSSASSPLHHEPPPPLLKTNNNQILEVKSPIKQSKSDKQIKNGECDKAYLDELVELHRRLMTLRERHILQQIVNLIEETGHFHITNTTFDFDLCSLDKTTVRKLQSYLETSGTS
# rRNA inh HTS OD600: also measured in rRNA inh HTS; calls as there; OD600 change, %; measured here: OD600 growth;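 optical density of the mix in the first replicate; 0 = DMSO median and -100 = no signal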
# rRNA inh HTS RFP: second read-out of rRNA inh HTS, no call of its own (marks repeat the call); RFP signal change, %; measured here: RFP humanized mutant strains;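 first replicate; 0 = DMSO median and -100 = no signal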
# An asterisk follows results filed as active; i = inactive; & = joins results of further samples.
No.	mol	rRNA inh HTS	rRNA inh HTS OD600	rRNA inh HTS RFP	FGF22 binding	AF4-AF9 inh
1	CNC[C@@H]1Oc2ccc(NC(=O)CCCN(C)C)cc2C(=O)N([C@H](C)CO)C[C@H]1C	9.4	20.5	-1.0	i	-0.4
2	CCC(=O)N(C)C[C@@H]1Oc2cc(C#C[C@H](C)O)ccc2S(=O)(=O)N([C@@H](C)CO)C[C@H]1C	2.9	9.4	-3.5	i	-2.8
3	C[C@@H]1CN([C@H](C)CO)C(=O)Cc2cc(NC(=O)Nc3ccc4c(c3)OCO4)ccc2O[C@H]1CN(C)C(=O)Nc1ccc2c(c1)OCO2	2.3	1.4	0.1	i	1.7
4	CC(C)C#Cc1cnc2c(c1)C(=O)N([C@@H](C)CO)C[C@@H](C)[C@H](CN(C)C(=O)c1ccc3c(c1)OCO3)O2	-1.0	-4.6	-0.6	i	0.7
5	C[C@@H]1CN([C@H](C)CO)S(=O)(=O)c2ccc(C#Cc3ccc(F)cc3)cc2O[C@H]1CN(C)C	-19.8	-67.1	16.6	i	10.9
6	Cc1noc(C)c1NC(=O)N(C)C[C@@H]1Oc2ccc(NC(=O)Nc3ccc(C(F)(F)F)cc3)cc2C(=O)N([C@H](C)CO)C[C@H]1C	-3.4	-4.1	-1.1	i	1.3
7	CC1=C(C(=O)N2CCCCCC2)CC(CC(=O)NC2CCCCC2)C(=O)N1Cc1ccccc1 (configuration not stated)	5.5	11.6	-0.3	i	0.5
8	O=C(C[C@@H]1CC[C@@H]2[C@H](COC[C@H](O)CN2Cc2cccc(C(F)(F)F)c2)O1)NCc1ccc(F)cc1	-0.9	5.6	-1.2	i	0.2
9	O=C(C[C@@H]1CC[C@@H](NC(=O)c2ccncc2)[C@H](CO)O1)NCCc1ccncc1	2.0	-0.2	2.0	i	-1.6
10	COc1ccc(S(=O)(=O)Nc2ccc3c(c2)CC(=O)N([C@@H](C)CO)C[C@@H](C)[C@@H](CN(C)S(C)(=O)=O)O3)cc1	6.9	14.1	3.0	i	-1.4
11	C[C@@H]1CN([C@H](C)CO)C(=O)c2cc(NS(=O)(=O)c3cn(C)cn3)ccc2O[C@@H](C)CCCCO[C@H]1CN(C)Cc1ccccc1	0.2	1.1	-1.4	i	-3.0
12	C[C@@H]1CN([C@H](C)CO)C(=O)Cc2cc(NS(=O)(=O)c3cccs3)ccc2O[C@H]1CN(C)C(=O)Nc1ccccc1	2.8	3.1	-0.7	i	-3.8
13	C[C@@H]1CN([C@@H](C)CO)C(=O)Cc2cc(NC(=O)CCCCCC(=O)Nc3ccccc3N)ccc2O[C@H]1CN(C)S(=O)(=O)c1ccccc1	-0.8	5.8	-0.3	i	-1.4
14	CCOc1ccc(C(C)NC(=O)C2CCN(S(=O)(=O)c3ccc(OC)cc3)CC2)cc1OCC (configuration not stated)	12.9	10.3	0.9	i	-1.7
15	CCOC(=O)N1CCN(C(=O)COC(=O)CNC(=O)c2ccc(OCC)c(OCC)c2)CC1	9.1	1.2	0.7	i	0.4
16	COc1ccc2c3c(n(C)c2c1)[C@H](CO)N(C(=O)c1ccncc1)CC31CCN(C(C)=O)CC1	3.2	13.2	-3.2	i	-3.7
17	OC[C@@H]1[C@@H]2c3ccccc3NC[C@@H]2N1CC1CCOCC1	-1.6	-3.3	-0.1	i	0.1
18	C[C@@H]1CN([C@H](C)CO)C(=O)c2cc(NC(=O)Nc3cccc4ccccc34)ccc2O[C@@H]1CN(C)S(=O)(=O)c1ccccc1	-1.6	3.2	-0.9	i	-1.5
19	COc1ccc2nc(-c3ccccc3)cc(C(=O)OCC(=O)NC3CC3)c2c1	4.5	13.1	-0.4	i	3.1
20	COc1ccc(NC(=O)CCNC(=O)N2CC(=O)Nc3ccccc32)cc1	10.6	10.1	0.0	i	-0.2
21	C[C@H](CO)N1C[C@H](C)[C@@H](CN(C)S(=O)(=O)c2ccccc2)Oc2ccc(NS(=O)(=O)c3ccccc3)cc2CC1=O	-3.0	-14.4	-0.2	i	-1.3
22	C[C@@H]1CN([C@H](C)CO)C(=O)c2cc(C#CC3CCCCC3)cnc2O[C@@H]1CN(C)Cc1cncnc1	1.3	-2.3	2.5	i	1.6
23	CNC[C@H]1Oc2c(NS(=O)(=O)c3ccc(C)cc3)cccc2C(=O)N([C@H](C)CO)C[C@@H]1C	4.0	4.2	-2.0	i	-1.7
24	COC(=O)[C@]12CCCCC=C1N(Cc1ccc(Cl)cc1Cl)C(=O)[C@H](CC(=O)NCC1CCCCC1)C2	22.4	19.1	0.9	i	-1.6
25	C[C@@H]1CN([C@H](C)CO)C(=O)c2cc(N(C)C)ccc2O[C@H]1CN(C)C(=O)NC1CCCCC1	-0.1	-5.6	-1.7	i	-1.1
26	CCC(=O)Nc1ccc2c(c1)C(=O)N(C)[C@@H]1CC[C@@H](CC(=O)NCCOC)O[C@H]1CO2	1.8	3.1	-2.4	i	-2.1
27	CNC[C@H]1Oc2cc(C#Cc3ccncc3)ccc2S(=O)(=O)N([C@H](C)CO)C[C@@H]1C	-3.7	-5.3	1.3	i	-1.1
28	C[C@H]1CN([C@@H](C)CO)C(=O)c2cc(C3=CCCC3)cnc2O[C@H]1CN(C)C(=O)C1CCOCC1	0.4	-0.3	-1.6	i	-2.2
29	COc1ccc2c3c(n(C)c2c1)[C@@H](CO)N(C(C)=O)CC31CCN(C(=O)NC(C)C)CC1	0.1	4.5	2.2	i	-1.1
30	COc1ccc(S(=O)(=O)N[C@@H]2C=C[C@@H](CC(=O)NCCc3ccccc3)O[C@H]2CO)cc1	-0.4	1.3	-3.5	i	-1.4
31	O=C(c1ccncc1)N1C[C@@H]2[C@H](c3ccccc31)[C@H](CO)N2C(=O)Nc1cccc(F)c1	-1.8	2.1	-2.2	i	0.4
32	O=C(NCCCl)Nc1ncn[nH]1	7.7	17.1	7.6	i	1.4
33	CC(O)(CC(=O)CC(=O)c1ccccc1)c1ccccc1 (configuration not stated)	-33.3	-55.5	-14.1	i	22.0
34	COC(=O)CCCn1cc(CN2CC(N(C)C)CS2(=O)=O)nn1 (configuration not stated)	7.8	16.8	-3.8	i	-1.3
35	COC(=O)[C@@]1(Sc2ccc(C)cc2)CC(=O)N[C@@H]1c1ccc(C(F)(F)F)cc1	-3.4	-22.8	-0.9	i	1.4
36	O=C(CN1CCN(S(=O)(=O)c2ccc(Br)s2)CC1)NCC1CCCCC1	-10.9	-27.4	0.5	i	2.3
37	CCCCCCCCNCCS(=O)(=O)NCc1ccc(OC)cc1	-1.3	-17.8	12.7	i	-4.2
38	COc1ccc(-c2ccc3c(c2)[C@@H]2C[C@H](N(C)C(=O)Nc4ccccc4)[C@H]([C@H](C)O)C(=O)N2CC3)cc1	16.0	7.0	14.9	i	-4.3
39	CCCNC(=O)N1[C@H](CNC(=O)c2ccccc2)[C@@H](c2ccccc2)[C@@H]1CO	-6.1	-2.4	-2.5	i	0.7
40	Nc1ccc(C(=O)Nc2ccc(Nc3ccncc3)cc2)c([N+](=O)[O-])c1	-4.3	10.0	-5.4	i	3.2
41	COc1ccc(S(=O)(=O)NC(=O)C2(C)CCN2C(=O)CCc2ccc(Cl)cc2Cl)cc1 (configuration not stated)	-6.9	-10.0	-1.0	i	-2.3
42	COc1ccccc1C#Cc1cnc2c(c1)C(=O)N([C@@H](C)CO)C[C@@H](C)[C@H](CN(C)C(=O)CC1CC1)O2	-5.8	-0.5	-1.1	i	1.7
43	C[C@@H]1CN([C@H](C)CO)C(=O)CCCn2cc(nn2)CO[C@@H]1CN(C)Cc1cccc(O)c1	1.1	4.4	-0.3	i	1.3
44	C[C@@H]1CCCCO[C@@H](CN(C)Cc2ccc(Cl)c(Cl)c2)[C@H](C)CN([C@H](C)CO)C(=O)c2cc(NC(=O)Nc3ccc(C(F)(F)F)cc3)ccc2O1	0.3	6.0	-1.9	i	-1.6
45	CCCC#Cc1cnc2c(c1)C(=O)N([C@@H](C)CO)C[C@H](C)[C@H](CN(C)Cc1cccnc1)O2	-0.8	2.6	-1.2	i	-4.1
46	Cc1cc2c(cc1C)-n1nnnc1C(N1CCN(c3ccccc3F)CC1)C(=O)N2 (configuration not stated)	11.1	7.9	1.6	i	0.0
47	CCCNC(=O)N(C)C[C@@H]1Oc2ncc(-c3ccc(C(=O)N(C)C)cc3)cc2C(=O)N([C@@H](C)CO)C[C@@H]1C	1.0	10.7	-1.0	i	-5.7
48	COc1ccc(C(CNC(=O)c2ccc(NS(=O)(=O)c3ccc(F)c(C)c3)cc2)N2CCCC2)cc1 (configuration not stated)	-3.7	-17.6	7.1	i	4.3

# Compounds shown so far containing a Cl atom (four):
No.	mol	rRNA inh HTS	rRNA inh HTS OD600	rRNA inh HTS RFP	FGF22 binding	AF4-AF9 inh
24	COC(=O)[C@]12CCCCC=C1N(Cc1ccc(Cl)cc1Cl)C(=O)[C@H](CC(=O)NCC1CCCCC1)C2	22.4	19.1	0.9	i	-1.6
32	O=C(NCCCl)Nc1ncn[nH]1	7.7	17.1	7.6	i	1.4
41	COc1ccc(S(=O)(=O)NC(=O)C2(C)CCN2C(=O)CCc2ccc(Cl)cc2Cl)cc1 (configuration not stated)	-6.9	-10.0	-1.0	i	-2.3
44	C[C@@H]1CCCCO[C@@H](CN(C)Cc2ccc(Cl)c(Cl)c2)[C@H](C)CN([C@H](C)CO)C(=O)c2cc(NC(=O)Nc3ccc(C(F)(F)F)cc3)ccc2O1	0.3	6.0	-1.9	i	-1.6

# Other compounds follow:
No.	mol	rRNA inh HTS	rRNA inh HTS OD600	rRNA inh HTS RFP	FGF22 binding	AF4-AF9 inh
49	COCC(=O)Nc1ccc2c(c1)OC[C@@H](C)N(C(=O)c1ccncc1)C[C@@H](C)[C@H](OC)CN(C)C2=O	3.0	-0.3	-1.5	i	-0.3
50	Cc1c(F)cccc1NS(=O)(=O)c1ccc(N2CCCC2=O)cc1	3.9	2.9	-1.7	i	2.2
51	CC(=O)NCCNc1nc2cc(-c3ccsc3)sc2c(=O)n1C	-5.2	15.3	4.8	i	0.8
52	CCc1nc2c(OCc3ccccc3)cccn2c1N(C)C(=O)Nc1ccccc1OC	-27.5	-49.0	3.0	i	1.5
53	CO[C@H]1CN(C)C(=O)c2ccc(NC(=O)CC(F)(F)F)cc2OC[C@H](C)N(C(C)=O)C[C@@H]1C	0.8	-1.3	1.6	i	-2.0
54	Cc1cn([C@H]2C[C@H](O)[C@@H](CNC(=O)[C@H](N)Cc3cscn3)O2)c(=O)[nH]c1=O	0.0	13.6	-0.3	i	0.6
55	CCNC(=O)C[C@@H]1CC[C@@H]2[C@H](COC[C@H](O)CN2C(=O)Nc2cccc(OC)c2)O1	-3.9	-3.8	-0.4	i	2.1
56	C[C@H]1CCCCO[C@H](CN(C)C(=O)Nc2cccc3ccccc23)[C@@H](C)CN([C@@H](C)CO)C(=O)c2cc(NC(=O)Nc3ccc(F)cc3)ccc2O1	1.7	5.6	0.7	i	-1.0
57	COc1ccc(S(=O)(=O)N(C)C[C@@H]2Oc3ccc(NC(=O)Nc4cccc5ccccc45)cc3CC(=O)N([C@@H](C)CO)C[C@H]2C)cc1	-6.3	-4.5	-1.3	i	1.1
58	O=C(Nc1ccc2c(c1)[nH]c(=O)c1ccccc12)C(F)(F)F	-4.5	-5.0	-2.5	i	-2.5
59	O=C(C=Cc1ccc(Cl)s1)c1ccc(Cl)s1	6.3	6.9	3.9	i	5.1
60	COCCNC(=O)C[C@H]1C[C@H]2c3cc(NC(=O)CC4CC4)ccc3O[C@H]2[C@H](CO)O1	1.7	7.0	-3.8	i	-0.4
61	Cc1noc(C)c1S(=O)(=O)N(C)C[C@@H]1Oc2ccc(NC(=O)C3CCCCC3)cc2CC(=O)N([C@H](C)CO)C[C@@H]1C	-1.9	-4.5	2.5	i	-0.8
62	CN(C)CC(=O)Nc1ccc2c(c1)[C@H]1C[C@@H](CC(=O)NCc3cccnc3)O[C@@H](CO)[C@H]1O2	3.2	11.5	-2.5	i	-0.4
63	C/C=C/c1ccc2c(c1)O[C@H](CN(C)C(=O)Cc1ccccc1)[C@@H](C)CN([C@@H](C)CO)S2(=O)=O	-4.1	-14.3	-2.4	i	3.7
64	Cc1cc(C)n2c(NC3CCCC3)c(-c3cccnc3)nc2n1	8.5	20.9	-0.6	i	-0.5
65	COc1ccc(CN2C[C@@H](O)COC[C@H]3O[C@@H](CC(=O)N(C)C)CC[C@@H]32)cc1	1.1	2.5	-3.6	i	-1.6
66	C[C@@H]1CCCCO[C@H](CN(C)C(=O)Nc2ccc3c(c2)OCO3)[C@H](C)CN([C@H](C)CO)C(=O)c2cc(NS(=O)(=O)c3ccccc3)ccc2O1	0.4	7.2	-1.3	i	7.5
67	CC(Sc1nnc(Cc2ccccc2)n1C)C(=O)NC1CC1 (configuration not stated)	6.0	11.1	-1.5	i	0.8
68	C[C@H](CO)N1C[C@H](C)[C@@H](CN(C)Cc2ccc(C(=O)Nc3ccccc3N)cc2)OCc2cn(nn2)CCCC1=O	1.8	4.1	-1.4	i	9.1
69	CCOC(=O)N(C)C[C@H]1OCc2cnnn2CCCC(=O)N([C@@H](C)CO)C[C@H]1C	2.5&2.5	4.0&-0.9	3.6&-0.7	i	-2.2&0.9
70	C[C@@H](O)C#Cc1ccc([C@@H]2[C@@H](CO)N3CCCCN(C(=O)Nc4ccccc4)C[C@H]23)cc1	4.9	10.2	1.3	i	0.4

# Only part of the results is shown, so the mix of outcomes need not match the whole.
